A1 inh = blocks A1 activity; MEF A1-2A-BIM cells, caspase-Glo luminescence, 3 h; percent of clofoctol signal, DMSO as zero; caspase activation, % (no concentration beside the values); 21,000 tested, 0.51% active;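 active = most replicate scores above 10, or exactly half above 10 with mean activity above 10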;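 also: effector caspase 3 and 7 activity cleaving a DEVD luciferin substrate; 50 nL library stock added to about 30 µL; numbers are from one replicate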
BJeLR viability = compounds reducing viability of BJeLR cells | BJeLR fibroblasts viability, CellTiterGlo ATP luminescence, 48 h; HRASV12, hTERT and SV40 LT/ST transformed | viability loss activity score, % (no concentration beside the values) | 30,000 tested, 0.64% active; in the data active = viability loss activity score above about 50%; about a fifth of its hits are not listed in these tables;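 also: higher score means fewer live cells and less ATP luminescence; stock transfer was 50 or 100 nL into about 30 µL; 0% = vehicle wells and 100% = a reference killing control; one replicate is shown; the record names a cut of 85%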
An asterisk follows results filed as active; · = no result given. These rows are one share of the data, so the mix of outcomes need not match the whole.

cpd	mol	A1 inh	BJeLR viability
1	C[C@H]1CN([C@@H](C)CO)C(=O)c2cc(NC(=O)Cc3ccccc3)ccc2O[C@H]1CN(C)Cc1ccc(Cl)c(Cl)c1	0.2	-3.5
2	C[C@@H]1CN([C@H](C)CO)C(=O)c2cccc(NC(=O)C3CC3)c2O[C@H]1CN(C)CC1CCCCC1	·	1.8
3	COc1cc(O)c(C(=O)/C=C/c2ccc(OC)c(OC)c2)c(OC)c1	-0.3	-9.5
4	CC[n+]1ccc(C)c2cc(C(F)(F)F)ccc21	0.1	-0.2
5	CCCCN1CCc2c(c3ccccc3n2Cc2ccccc2)C1	-1.5	4.7
6	COc1ccc(S(=O)(=O)Nc2ccc3c(c2)C(=O)N([C@@H](C)CO)C[C@H](C)[C@@H](CN(C)C(=O)Nc2cccc4ccccc24)O3)cc1	0.4	-2.4
7	O=C(CCn1c(=S)[nH]c2ccsc2c1=O)NCCc1ccc(Cl)cc1	-0.2	-3.3
8	COC(CNC(=O)Cn1nc(Cc2ccncc2)c2ccccc2c1=O)OC	0.8	1.9
9	COc1ccc(NC(=O)N(C)C[C@@H]2Oc3ccc(NC(=O)Nc4ccc(C(F)(F)F)cc4)cc3C(=O)N([C@@H](C)CO)C[C@@H]2C)cc1	0.5	-7.5
10	Cc1ccc(S(=O)(=O)N(C)C[C@@H]2Oc3ccc(NC(=O)Nc4c(C)noc4C)cc3C(=O)N([C@H](C)CO)C[C@H]2C)cc1	0.3	0.7
11	COc1ccc(S(=O)(=O)Nc2ccc3c(c2)C(=O)N([C@H](C)CO)C[C@H](C)[C@H](CN(C)Cc2ccc4c(c2)OCO4)O3)cc1	1.4	2.7
12	C[C@H](CO)N1C[C@H](C)[C@@H](CN(C)C)Oc2ccc(NC(=O)CCCN(C)C)cc2C1=O	-0.5	-0.8
13	Cc1ccc(C(=O)NCC(=O)O)cc1S(=O)(=O)N1CCCCC1	-0.1	-0.2
14	COC(=O)c1cnc(Oc2c(Cl)cc(N)cc2Cl)cc1C(F)(F)F	-0.4	0.5
15	C[C@@H]1CN([C@H](C)CO)C(=O)c2cccc(NS(=O)(=O)c3ccc(Cl)cc3)c2O[C@@H]1CN(C)Cc1ccccc1	·	1.9
16	Cc1nnsc1C(=O)NC(=O)Nc1cc(Cl)cc(Cl)c1	-5.3	0.7
17	O=C(CCN1N=C(c2ccccc2)CCC1=O)NC1CCCC1	0.6	1.3
18	CC1C2CC(C(S(=O)(=O)N3CCOCC3)C2=O)C1(C)C (centres undefined)	-0.9	1.5
19	C[C@@H]1CN([C@@H](C)CO)C(=O)c2cccc(N(C)C)c2O[C@@H]1CN(C)S(C)(=O)=O	·	-2.8
20	COC(=O)C1=C(C)N(Cc2ccccc2)C(=O)NC1c1ccccc1F (centres undefined)	0.4	4.1
21	CCC12CN3CC(CC)(CN(C1)C3c1ccc(C(C)C)cc1)C2=O (centres undefined)	1.0	3.7
22	C[C@@H]1CN([C@@H](C)CO)C(=O)c2cccc(NS(=O)(=O)c3ccc(Cl)cc3)c2O[C@H]1CN(C)Cc1ccccc1	·	0.1
23	Cc1[nH]n2c(=O)c3c(nc2c1-c1ccccc1)CCC3	-0.3	-4.6
24	Cc1nc2ccc(S(=O)(=O)NC(C(=O)N3CCn4c3nc3ccccc34)C(C)C)cc2s1 (centres undefined)	·	-1.3
25	CC1(C)CC(NC(=O)NC(=O)c2c(F)cccc2F)CC(C)(C)N1	1.1	-1.5
26	CC(C)NC(=O)N(C)C[C@H]1Oc2ccc(NC(=O)Nc3ccc(F)cc3)cc2C(=O)N([C@H](C)CO)C[C@H]1C	0.9	3.2
27	COc1ccc(NC(=O)Cn2c(=O)n(-c3ccccc3)c(=O)c3c4c(sc32)CCCC4)cc1OC	·	-12
28	Cc1ccc(C)c(N2C(=O)CC3CS(=O)(=O)CC32)c1 (centres undefined)	1.0	-1.3
29	CCCC1=C(C(=O)OCC)C(c2cc(Br)c(O)c(OC)c2)NC(=O)N1 (centres undefined)	-0.4	-2.5
30	C[C@@H]1CN([C@H](C)CO)C(=O)c2cc(NC(=O)CCCN(C)C)ccc2O[C@H]1CN(C)C	0.2	8.1
31	C[C@@H]1CN([C@@H](C)CO)C(=O)c2cccc(NS(=O)(=O)c3cn(C)cn3)c2O[C@@H]1CN(C)Cc1ccc(C(F)(F)F)cc1	·	15
32	COC(=O)Nc1ncc(CN2CCC(C)CC2)s1	1.6	2.8
33	CCc1nn(C(C)C(=O)N(C)Cc2ccccc2)c(=O)c2cc3occc3n12 (centres undefined)	0.7	-0.9
34	C[C@H]1CN([C@@H](C)CO)C(=O)c2cc(NC(=O)Cc3ccccc3)ccc2O[C@H]1CN(C)Cc1ccncc1	-0.3	-1.0
35	Cc1ccc(N2C(=O)c3oc4cc(C)c(C)cc4c(=O)c3C2c2ccc(O)cc2)nc1 (centres undefined)	·	-1.2
36	CCn1cc(/C=C(\NC(=O)c2ccccc2Cl)C(=O)N2CCc3ccccc32)c2ccccc21	1.3	-0.1
37	COc1ccc(-c2cc(=O)c3c(O)cc(O[C@@H]4O[C@H](C(=O)O)[C@@H](O)[C@H](O)[C@H]4O)cc3o2)cc1	-2.6	-3.4
38	C[C@H]1CN([C@@H](C)CO)C(=O)c2cccc(NS(C)(=O)=O)c2O[C@H]1CN(C)Cc1ccncc1	·	3.0
39	CCNc1nc(F)cc(=O)[nH]1	-0.2	0.7
40	O=C(CCn1c(=O)oc2ccccc21)NCCC1=CCCCC1	·	-9.1
41	O=C(Cn1c2c(c(-c3ccccc3)cc1=O)CCCC2)N1CCCC1	1.7	-12
42	CSc1ccc(-c2nc3ncccn3c2Nc2ccccc2)cc1	·	0.2
43	C[C@@H]1CN([C@H](C)CO)C(=O)c2cc(NS(C)(=O)=O)ccc2O[C@H]1CN(C)CC1CC1	-0.2	2.1
44	Nc1nc(CNS(=O)(=O)c2ccccc2)nn1S(=O)(=O)c1ccccc1	0.7	-5.5
45	C[C@@H]1CN([C@H](C)CO)C(=O)c2cccc(NC(=O)c3nc4ccccc4s3)c2O[C@@H]1CN(C)Cc1ccccc1	·	-2.9
46	CC1(C)CC2(CCO1)OC(=O)CC2C(=O)NCc1ccccc1 (centres undefined)	0.0	-1.3
47	C[C@@H]1CN([C@@H](C)CO)C(=O)c2cccc(NC(=O)Nc3ccc(C(F)(F)F)cc3)c2O[C@@H]1CN(C)Cc1ccncc1	·	-3.9
48	CCCS(=O)(=O)c1cnc(C2COc3ccccc3O2)nc1N (centres undefined)	-6.1	33
49	C[C@H]1CN([C@@H](C)CO)C(=O)c2cc(NC(=O)CCCCCC(=O)Nc3ccccc3N)ccc2O[C@H]1CN(C)Cc1ccc(Cl)c(Cl)c1	·	-4.3
50	C[C@@H]1CN([C@H](C)CO)C(=O)c2cc(NC(=O)CCC(F)(F)F)ccc2O[C@H]1CN(C)C(=O)Nc1ccc(C(F)(F)F)cc1	-0.3	-0.3

Exported with values under each structure: part of the list above
Screens in order – A1 inh, BJeLR viability
#47 C[C@@H]1CN([C@@H](C)CO)C(=O)c2cccc(NC(=O)Nc3ccc(C(F)(F)F)cc3)c2O[C@@H]1CN(C)Cc1ccncc1
  ·, -3.9
#43 C[C@@H]1CN([C@H](C)CO)C(=O)c2cc(NS(C)(=O)=O)ccc2O[C@H]1CN(C)CC1CC1
  -0.2, 2.1
#50 C[C@@H]1CN([C@H](C)CO)C(=O)c2cc(NC(=O)CCC(F)(F)F)ccc2O[C@H]1CN(C)C(=O)Nc1ccc(C(F)(F)F)cc1
  -0.3, -0.3
#49 C[C@H]1CN([C@@H](C)CO)C(=O)c2cc(NC(=O)CCCCCC(=O)Nc3ccccc3N)ccc2O[C@H]1CN(C)Cc1ccc(Cl)c(Cl)c1
  ·, -4.3
#46 CC1(C)CC2(CCO1)OC(=O)CC2C(=O)NCc1ccccc1 (centres undefined)
  0.0, -1.3

Other records:
cpd	mol	A1 inh	BJeLR viability
51	FC(F)(F)Oc1ccc(Nc2n[nH]c(=S)s2)cc1	·	-1.2
52	CC(C)Cc1nc2ccccc2[nH]1	0.8	-2.3
53	CCC(=O)Nc1ccccc1C(=O)Nc1ccccc1	0.3	2.1
54	C[C@H]1CN([C@@H](C)CO)C(=O)c2cccc(NS(=O)(=O)c3ccc(Cl)cc3)c2O[C@H]1CN(C)Cc1ccc(Oc2ccccc2)cc1	·	-4.9
55	Cc1cc2c(CO)cc(O)cc2o1	-0.2	-3.0
56	COc1ccc(NC(=O)N(C)C[C@H]2Oc3c(NC(=O)Nc4c(C)noc4C)cccc3C(=O)N([C@@H](C)CO)C[C@@H]2C)cc1	·	2.2
57	COc1ccc(C2=NOC(C(=O)NC(C)C)C2)cc1 (centres undefined)	·	-11
58	CCc1ccc(NC(=O)c2cnc3sccn3c2=O)cc1	·	2.8
59	Cc1ccc(NC(=O)CC2(c3ccc(Br)cc3)C(=O)c3ccccc3C2=O)cc1	·	-2.9
60	NC(=O)c1cc(S(=O)(=O)N2CCOCC2)ccc1F	-0.5	8.7
61	S=C(Nc1ccccc1)Nc1ccccc1-n1cccc1	1.9	5.1
62	NCCC(c1ccccc1)c1ccccc1	-0.4	7.3
63	C[C@H]1CN([C@@H](C)CO)C(=O)c2cc(NC(=O)Nc3cccc4ccccc34)ccc2O[C@@H]1CN(C)Cc1ccc(C(=O)O)cc1	0.0	0.9
64	Cc1nn(-c2ccccc2)nc1-c1nnc(-c2cccc3ccccc23)o1	-0.1	-2.1
65	CC(C)(CO)NC(=O)CSc1ccc(C(F)(F)F)cc1Cl	0.3	-2.4
66	Cc1ccc(NC(=O)CCn2nc(C)cc2C)c(C)c1	·	0.0
67	Cc1c(C(=O)N2CCNCC2)oc2ccccc12	0.0	-3.9
68	O=C(OCC1OC(Oc2ccc(O)cc2COC(=O)C2(O)C(O)CCC(O)C2O)C(O)C(O)C1O)c1ccccc1 (centres undefined)	0.2	0.2
69	Cc1ccc(S(=O)(=O)Nc2cccc3c2O[C@@H](CN(C)C)[C@@H](C)CN([C@@H](C)CO)C3=O)cc1	·	0.2
70	Cc1cc(C(=O)Nc2cccc3c2O[C@@H](CN(C)Cc2ccc(-c4ccccc4)cc2)[C@H](C)CN([C@H](C)CO)C3=O)n(C)n1	·	1.0
71	COC(=O)C1CCN(C(=O)c2ccccc2)CC1	0.9	2.3
72	Cc1nc2c(C(=O)N3CCc4ccccc4C3)cnn2c(C)c1Cc1ccc(Cl)cc1	0.6	-2.3
73	CC(C)(C)c1ccc(C(=O)C(C#N)=C2SCCCS2)cc1	-3.8	-3.5
74	C[C@H](CO)N1C[C@H](C)[C@H](CN(C)S(C)(=O)=O)Oc2ccc(NC(=O)CCCCCC(=O)Nc3ccccc3N)cc2C1=O	·	0.3
75	COc1ccc2[nH]c3c(OC)ncnc3c2c1	-5.9	5.6
76	CCC(=O)NC(=S)Nc1cc(-c2nc3ccccc3o2)ccc1OC	·	-9.2
77	O=C(CCCCn1c(=O)[nH]c2ccsc2c1=O)N1CCCCC1	·	-7.1
78	CNC(=O)c1ccc(/C=C2/Oc3ccccc3N(Cc3cccc(C)c3)C2=O)cc1	0.3	-3.8
79	COc1ccc(S(=O)(=O)N(C)C[C@H]2Oc3ccc(NS(=O)(=O)c4c(C)noc4C)cc3C(=O)N([C@H](C)CO)C[C@@H]2C)cc1	0.3	1.8
80	CC1CC(=O)C2C(O)(C1)CC(O)C13OC21C(=O)c1cccc(O)c1C3O (centres undefined)	0.2	-0.8
81	CCCc1cc(=O)[nH]c(SC/C=C/c2ccccc2)n1	-0.6	18
82	C[C@@H]1CN([C@H](C)CO)C(=O)c2cccc(NC(=O)c3cnccn3)c2O[C@@H]1CN(C)CC1CC1	·	-0.7
83	COc1ccc(NC(=O)N(C)C[C@H]2Oc3c(NS(C)(=O)=O)cccc3C(=O)N([C@@H](C)CO)C[C@@H]2C)cc1	·	-2.3
84	COc1ccc(CN(C)C[C@@H]2Oc3ccc(NC(=O)NC(C)C)cc3C(=O)N([C@H](C)CO)C[C@@H]2C)cc1	1.0	4.3
85	COC(=O)Cn1c(=N)n(C)c2ccccc21	-0.5	0.9
86	NC(=Nc1ccccc1)NC(=O)c1nc(Cl)c(N)nc1N	-2.5	3.1
87	C[C@H]1CN([C@@H](C)CO)C(=O)c2cc(NC(=O)Nc3ccc(C(F)(F)F)cc3)ccc2O[C@@H]1CN(C)Cc1ccc(C(F)(F)F)cc1	0.0	4.0
88	C[C@@H]1CN([C@@H](C)CO)C(=O)c2cccc(NC(=O)Nc3ccccc3)c2O[C@@H]1CN(C)S(=O)(=O)c1cn(C)cn1	·	-0.4
89	COc1ccc(S(=O)(=O)N(C)C[C@H]2Oc3c(NC(=O)C4CCOCC4)cccc3C(=O)N([C@H](C)CO)C[C@H]2C)cc1	·	-3.5
90	C[C@@H]1CN([C@@H](C)CO)C(=O)c2cc(NS(=O)(=O)c3ccc(Cl)cc3)ccc2O[C@H]1CN(C)CC1CCCCC1	0.4	3.4
91	C[C@]1(CO)CCC[C@]2(C)C3=C(C[C@@H](O)C12)C(=O)OC3 (some centres undefined)	1.0	4.9
92	C[C@H](CO)N1C[C@H](C)[C@@H](CN(C)S(=O)(=O)c2ccccc2)Oc2ccc(NC(=O)c3ccncc3)cc2C1=O	1.0	-0.8
93	Nc1ccc(C(=O)NCC2CCCN3CCCCC23)cc1 (centres undefined)	0.5	7.5
94	C[C@H](CO)N1C[C@H](C)[C@H](CN(C)Cc2ccc(Oc3ccccc3)cc2)Oc2ccc(NC(=O)Nc3cccc4ccccc34)cc2C1=O	-0.1	1.1
95	CS(=O)(=O)Nc1ccc(Br)cc1	1.2	4.9

Among those listed so far, 3 have a thiophene ring, fused or not.
cpd	mol	A1 inh	BJeLR viability
7	O=C(CCn1c(=S)[nH]c2ccsc2c1=O)NCCc1ccc(Cl)cc1	-0.2	-3.3
27	COc1ccc(NC(=O)Cn2c(=O)n(-c3ccccc3)c(=O)c3c4c(sc32)CCCC4)cc1OC	·	-12
77	O=C(CCCCn1c(=O)[nH]c2ccsc2c1=O)N1CCCCC1	·	-7.1

Screening data as filed in PubChem BioAssay.
